YopH PTP inh – blocks Yersinia enterocolitica YopH tyrosine phosphatase | fluorescence Ex485/Em525 | inhibition, %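 (about 10 µM by stock and volumes)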 | actives 0.16% (n = 140,000);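 active = inhibition of 50% or more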;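 also: controls were vehicle for no effect and minimum signal wells for full effect; inactives centre near -20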
Mtb growth – M. tuberculosis H37Rv growth inhibitors, H37Rv strain (AID 1626); M. tuberculosis H37Rv growth inhibition; higher % means a stronger effect; one-dose inhibition, % at 10 µM; IC50 in µM for titrated hits; actives 0.95% (n = 220,000);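 active = confirmed in a dose series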;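 also: bacteria incubated seven days before Alamar blue readout; 0% = bacteria only wells and 100% = bacteria with antibiotic wells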
Arbovirus inh – arbovirus infection inhibition; arbovirus infection cell-based antiviral screen; inhibition, % at 10 µM; actives 0.37% (n = 200,000); AID 1251;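 active = inhibition from about 30%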;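 also: bluetongue infection of BSR cells; cell survival read as ATP light after 72 h; 0% = infected wells without compound and 100% = uninfected wells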
Mtb bLac sens – beta-lactam sensitization of Mtb H37Rv; AID 434955; inhibition, % at 25 µM; M. tuberculosis H37Rv growth with meropenem, percent inhibition; hits of this screen are not shown here; actives 0.27% (n = 330,000);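 active = about 74% or more and at least 40 points above the plate without the antibiotic, then above 30% in a dose series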;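 also: growth measured after seven days incubation then overnight dye step; 0% = bacteria only wells and 100% = bacteria with antibiotic; twin plates without the antibiotic show which effects depend on it; some results filed as inactive read as strong as hits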
RecA splice inh – inhibitors of M. tuberculosis RecA intein splicing. P9WHJ3. cell-free RecA intein splicing, fluorescence. inhibition, %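 (about 9 µM by stock and volumes)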. actives 0.75% (n = 290,000). AID 2221; in the data active = inhibition above about 30%;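 also: 0% = vehicle wells and 100% = reference inhibitor control wells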
Target sequence (P9WHJ3 whole entry, looked up, canonical isoform): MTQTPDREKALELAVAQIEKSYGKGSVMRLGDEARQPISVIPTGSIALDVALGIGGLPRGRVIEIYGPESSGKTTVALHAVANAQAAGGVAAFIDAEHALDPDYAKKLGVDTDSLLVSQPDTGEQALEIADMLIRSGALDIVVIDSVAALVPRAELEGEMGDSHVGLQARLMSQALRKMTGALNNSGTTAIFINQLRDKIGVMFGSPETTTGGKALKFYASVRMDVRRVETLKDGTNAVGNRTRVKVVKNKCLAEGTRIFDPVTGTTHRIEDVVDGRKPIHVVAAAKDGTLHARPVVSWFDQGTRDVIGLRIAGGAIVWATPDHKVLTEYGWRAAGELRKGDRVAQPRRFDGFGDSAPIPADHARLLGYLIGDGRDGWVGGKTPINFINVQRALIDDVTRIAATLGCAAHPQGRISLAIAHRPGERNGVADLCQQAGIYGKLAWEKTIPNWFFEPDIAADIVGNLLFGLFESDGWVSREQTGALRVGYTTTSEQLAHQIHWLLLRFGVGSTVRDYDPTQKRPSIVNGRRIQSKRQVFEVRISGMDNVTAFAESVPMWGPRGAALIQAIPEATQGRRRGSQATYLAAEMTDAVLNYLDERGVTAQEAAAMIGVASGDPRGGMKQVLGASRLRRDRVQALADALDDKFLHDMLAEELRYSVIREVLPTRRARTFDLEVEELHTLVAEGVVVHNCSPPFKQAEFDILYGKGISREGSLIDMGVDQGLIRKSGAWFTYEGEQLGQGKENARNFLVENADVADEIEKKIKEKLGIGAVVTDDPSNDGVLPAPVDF
Arbovirus inh repeat – also measured in Arbovirus inh; calls as there; inhibition, %; measured here: 10K subset replicate screen; many hits read low in the repeat;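 first of two repeat runs on a subset; 0% = infected and 100% = uninfected wells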
The depositor's hits bear a star; x = not tested or not shown. These rows are one share of the data, so the mix of outcomes need not match the whole.

SMILES | YopH PTP inh | Mtb growth | Arbovirus inh | Mtb bLac sens | RecA splice inh | others
O=C1OC(N2CCN(Cc3ccccc3)CC2)c2ccccc21 (configuration not stated) | 3 | -6% | x | 5 | x
COc1ccc(CCN(C)C(=S)Nc2cccc(C)c2)cc1OC | x | x | x | 8 | 1.1
CCOC(=O)C1CCCN(C(=O)CN2C(=O)c3ccccc3C2=O)C1 (configuration not stated) | -40 | -4% | 4 | -7 | -0.5
Cn1c(-c2cnn(-c3ccccc3)c2N)n[nH]c1=S | x | -8% | -7 | 9 | 3.0
CCc1c(C)nc2c(Br)cccc2c1SCCC#N | -12 | 5% | 12 | 0 | 3.9
Cc1cc(C)n(-c2ccc(C(=O)Nc3ccccn3)cc2)n1 | -56 | -4% | -2 | -9 | 1.0
Cn1c(Cn2cnc(Cl)c2Cl)nc2ccccc21 | -20 | -10% | 5 | -17 | -0.9
O=C1c2cnc3nc(SCc4ccccc4)nn3c2CC2c3ccccc3CCN12 (configuration not stated) | -7 | 3% | -1 | 2 | -14
Cc1cc(C)nc(NC(N)=NC2CCCCC2)n1 | -18 | 1% | -8 | -1 | -2.9
Cc1nn(C)c(C)c1S(=O)(=O)N1CCC(C(=O)NC2CCCCC2)CC1 | -19 | 4% | 4 | -3 | -0.2
Cc1cc(NC(=O)c2ccc(S(=O)(=O)N3CCOCC3)cc2)nc2c1c(=O)oc1ccccc12 | -9 | x | -4 | -5 | 0.1
COc1cc2c(cc1NC(=O)C(C)Sc1ccc(C)cc1)oc1ccccc12 (configuration not stated) | -10 | 9% | -4 | 2 | 1.4
O=C(Cn1ncc2ccccc21)N1CCc2ccccc21 | -1 | -6% | -3 | 4 | 0.4 | Arbovirus inh repeat=-1
CCn1nnnc1SCC(=O)NC1Cc2ccccc2C1 | x | -8% | x | -7 | 2.6
Cc1cccc(C(=O)NC2CC(C)(C)NC(C)(C)C2)c1 | -40 | -2% | -6 | -2 | 1.4
C/C(=N\NC(=S)Nc1cccc(C)c1)c1cc2ccccc2o1 | x | 75% | -9 | 50 | 8.5
O=S(=O)(c1cccc(C(F)(F)F)c1)N1CCN(c2cnccn2)CC1 | x | 9% | 3 | -8 | 2.3
Cc1nn(-c2ccccc2)c(C)c1/C=N/NC(=O)c1cc(-c2cccs2)[nH]n1 | -16 | 29% | -4 | 76 | 8.9
Cc1cc(C)n2c(SCC(=O)Nc3ccc(F)cc3F)nnc2n1 | x | -1% | 4 | 0 | -1.2
CCOc1ccc(/C=N/NC(=O)C(O)c2ccccc2)c(O)c1 (configuration not stated) | x | x | x | 3 | -1.8
Fc1ccc(CSc2nnc(-c3ccccn3)o2)cc1 | x | x | x | 13 | -1.0
O=c1[nH]c(SCc2c(Cl)cccc2Cl)nc2ccccc12 | x | -4% | 7 | 7 | -2.0
O=c1oc2ccccc2c(Nc2ccc3ccccc3c2)c1[N+](=O)[O-] | -37 | 7.3µM* | -8 | 98 | 5.4
Cc1ccc(-n2ncc3c2CCCC3NC(=O)CCC2=NNC(=O)CC2)cc1C (configuration not stated) | x | x | x | -23 | -0.4
COc1ccc(/C=C/c2nnc(NC(C)=O)s2)cc1 | x | 3% | x | -3 | 5.6
NC(=O)C1=C[C@H](C2CCCCC2)C[C@H](OCc2ccc(CO)cc2)O1 | x | 8% | 8 | 5 | 1.9
CC(=O)Nc1ccc(OC(=O)c2cccnc2)cc1 | -7 | 1% | -1 | -4 | -0.3
O=C(c1ccc(Cn2c(=O)[nH]c3ccccc3c2=O)cc1)N1CCN(c2ccc(Cl)cc2)CC1 | -25 | 12% | -16 | 87 | -2.0
Cc1nn(Cc2ccc(C(=O)Nc3ccccc3C(F)(F)F)o2)c(C)c1Br | -5 | -3% | -5 | 8 | 2.3
CC(CSc1nnnn1-c1ccccc1)Cn1c(N2CCN(C)CC2)nc2c1c(=O)[nH]c(=O)n2C (configuration not stated) | x | 7% | 25 | 3 | -4.0
CCn1c(SCc2nc3ccccc3c(=O)[nH]2)nnc1C(C)NC(=O)c1ccccc1 (configuration not stated) | x | 1% | 0 | -2 | -4.9
O=C(CCn1c(=S)[nH]c2ccccc2c1=O)NCCSCc1ccccc1 | x | -22% | -3 | -3 | -2.0
CN(C)c1ccc(NC(=O)CCCCCn2nnc3ccccc3c2=O)cc1 | x | x | x | 3 | -4.2
CCOC(=O)N1CCC(NC(=O)c2oc3c(c2C)-c2[nH]ncc2CC3)CC1 | -19 | x | 3 | 1 | -3.1
O=C(Nc1ccc(C(=O)O)cc1)/C(=C\c1ccc(F)cc1)NC(=O)c1ccco1 | x | x | x | -3 | -0.5
CC(=O)c1ccc(S(=O)(=O)N2CCC3(CC2)OCCO3)cc1 | x | x | x | 2 | 1.2
O=C(CN1C(=O)c2ccc([N+](=O)[O-])cc2C1=O)NCCC1=CCCCC1 | x | x | x | -2 | -0.3
CC(C)(C)OC(=O)N[C@@H](COCc1ccccc1)C(=O)N[C@@H](CO)[C@H](O)[C@@H]1C[C@@H]1C(=O)NC1CCCCC1 | x | x | x | -3 | -2.6
COCCn1c(SCC(=O)Nc2ccc(Cl)c(S(=O)(=O)N(C)C)c2)nc2ccccc21 | -15 | -3% | 0 | -10 | -1.5
COc1ccc2c(c1OC)C(=O)N(c1ccc(O)cc1)C2 | x | x | x | 4 | -4.3
CCCCCOc1ccc(C(=O)NCCC(=O)NCCCC(=O)OCC)cc1 | x | x | x | -5 | -1.1
Cc1ccc2cc3cc(C(=O)N4CCN(C(=O)c5ccco5)CC4)sc3nc2c1 | -42 | 20% | 3 | -4 | 0.2
CC(=O)Nc1ccc(N2CCN(Cc3ccccc3F)CC2)cc1 | -11 | 3% | 5 | -27 | x
C#CCNC(=O)[C@H](Cc1ccc(C(=O)c2ccccc2)cc1)NC(=O)OC(C)(C)C | x | -2% | x | -1 | 1.4
NC(=O)Cn1cnc2c(nnn2-c2ccc(F)cc2)c1=O | x | x | x | -8 | 1.4
CON(C)C(=O)Nc1ccc(Cl)cc1 | 34 | -5% | -5 | -14 | 0.1
CCCCc1nnc(NC(=O)C=C(C)C)s1 | 4 | 1% | 4 | -2 | -1.6
COc1ccc(NC(=O)CN(C)C(=O)Cc2ccsc2)cc1 | x | x | x | -4 | -0.7
CC(CN(C(N)=O)c1ccccc1O)C(=O)O (configuration not stated) | -5 | 1% | -1 | 3 | -1.7
CCOC(=O)CCn1nc(-c2ccc(Cl)cc2)cc1N | -50 | 3% | -1 | -2 | -2.8
Oc1ccc2[nH]ccc2c1 | 17 | -13% | -3 | -7 | -7.4
Cc1ccc2[nH]c(C(=O)Nc3ccc(F)cc3)cc2c1 | x | x | x | -2 | -0.9
Cc1cc(C)nc(SCC(=O)N/N=C/c2cccc([N+](=O)[O-])c2)n1 | -26 | 14% | -17 | 4 | -2.2
O=C(c1ccc2c(c1)OCCO2)N(c1ccccn1)C1CCCCC1 | 5 | -6% | 4 | -4 | 2.9
CCn1c(Cc2ccccc2)nnc1SCC(=O)Nc1nc(C)cs1 | -18 | 2% | -17 | 5 | -0.6
CCOc1ncccc1C(=O)OCC(=O)Nc1ccc2c(c1)OCO2 | x | -2% | -4 | -2 | -2.2
CS(=O)(=O)c1ncc(Cl)c(C(=O)Nc2ccc3ccccc3c2)n1 | x | 6% | -31 | x | 31*
CCOc1cc(C)nc(Oc2ccc(=O)[nH]n2)n1 | -26 | -2% | 2 | -2 | -1.8
CCOC(=O)c1sc(NC(=O)CSc2nnc(-c3ccco3)n2CC)c(C(=O)OCC)c1C | -28 | 1% | -8 | 8 | 1.2
COc1cc(C(=O)NC2CCCCCCC2)cc(OC)c1OC | x | x | x | 12 | 3.1
The results go on:
SMILES | YopH PTP inh | Mtb growth | Arbovirus inh | Mtb bLac sens | RecA splice inh | others
O=C(Cc1ccccc1)NCC(=O)OCC(=O)c1ccc(Cl)cc1 | x | x | x | -4 | 2.2
Cc1nc(NC(=O)c2ccccc2)sc1-c1csc(Nc2cccc(Cl)c2)n1 | 37 | 5% | -26 | 3 | -0.5
COc1ccc(-c2noc(C3CCCN(S(=O)(=O)c4cccc(Cl)c4C)C3)n2)cc1OC (configuration not stated) | -21 | 1% | 7 | -4 | -1.9
O=C(NC1CCCCC1)C(c1ccc(F)cc1)N(CCN1CCOCC1)C(=O)c1ccc(-c2ccccc2)[nH]1 (configuration not stated) | x | -1% | 4 | 2 | 0.0
CCN(C(=O)Cn1c(=O)n(Cc2ccccc2)c(=O)c2ccccc21)c1cccc(C)c1 | -6 | -4% | -24 | -4 | 1.7
N#C/C(=N\Nc1ccccc1)C(=N)N1CCCCC1 | -18 | -6% | 2 | -3 | 2.1
CC(=O)NC1CCCN(O)C(=O)/C=C(\C)CCOC(=O)C(NC(C)=O)CCCN(O)C(=O)/C=C(\C)CCOC(=O)C(NC(C)=O)CCCN(O)C(=O)/C=C(\C)CCOC1=O (configuration not stated) | x | -2% | 2 | -1 | -4.5
Cc1ccc(-c2nnc(CN3CCN(C)CC3)o2)cc1 | x | x | x | 1 | 2.5
O=C(CN1N=C(c2ccccc2)CCC1=O)NCc1cccs1 | x | 8% | 0 | -3 | 0.4
Cc1cc(C)nc(SCc2nnc(SCC(=O)Nc3nc(-c4ccccc4)cs3)n2C)n1 | -15 | -8% | -8 | 91 | -2.6
Cc1ccc2c(c1)c(=O)c1c3n2CCN(C(=O)CCl)C3CC1 (configuration not stated) | 8 | x | -2 | 89 | 15
CCN1CCN(CCCNC(=O)c2ccc(/C=C3/Sc4ccccc4N(Cc4ccccc4F)C3=O)cc2)CC1 | x | 1% | -25 | -5 | 4.6
CCOC(=O)c1ccc(NC(=O)c2cc3ccccc3o2)cc1 | -35 | 4.7µM* | 16 | 96 | -7.2 | Arbovirus inh repeat=11
CCOC(=O)C1=C(C)N(CCCC(=O)O)C(=O)NC1C(CC)CC (configuration not stated) | x | -4% | x | 5 | -0.7
Cc1ccc(CC(=O)N(Cc2ccccc2)c2ccccn2)cc1 | x | 6% | -3 | -1 | 3.3
CCCCC(=O)NC(=S)Nc1cc(C(=O)O)ccc1Cl | -7 | 4% | 9 | 1 | -3.3
CC12CCC(C(=O)NCc3ccc(F)cc3)(OC1=O)C2(C)C (configuration not stated) | x | -1% | 5 | 3 | -0.3
CC1(C)Cc2c(sc3nc(=S)[nH]c(N)c23)CO1 | x | x | x | 0 | 1.5
CCCCCCCC(=O)NNC(=O)c1ccc(F)cc1 | -36 | 1% | 1 | 37 | 1.1

17 entries out of the list, ordered by SMILES length, largest number first:
SMILES | YopH PTP inh | Mtb growth | Arbovirus inh | Mtb bLac sens | RecA splice inh | others
CC(=O)NC1CCCN(O)C(=O)/C=C(\C)CCOC(=O)C(NC(C)=O)CCCN(O)C(=O)/C=C(\C)CCOC(=O)C(NC(C)=O)CCCN(O)C(=O)/C=C(\C)CCOC1=O (configuration not stated) | x | -2% | 2 | -1 | -4.5
O=C(NC1CCCCC1)C(c1ccc(F)cc1)N(CCN1CCOCC1)C(=O)c1ccc(-c2ccccc2)[nH]1 (configuration not stated) | x | -1% | 4 | 2 | 0.0
CCN1CCN(CCCNC(=O)c2ccc(/C=C3/Sc4ccccc4N(Cc4ccccc4F)C3=O)cc2)CC1 | x | 1% | -25 | -5 | 4.6
COc1ccc(-c2noc(C3CCCN(S(=O)(=O)c4cccc(Cl)c4C)C3)n2)cc1OC (configuration not stated) | -21 | 1% | 7 | -4 | -1.9
CCOC(=O)c1sc(NC(=O)CSc2nnc(-c3ccco3)n2CC)c(C(=O)OCC)c1C | -28 | 1% | -8 | 8 | 1.2
Cc1cc(C)nc(SCc2nnc(SCC(=O)Nc3nc(-c4ccccc4)cs3)n2C)n1 | -15 | -8% | -8 | 91 | -2.6
Cc1nc(NC(=O)c2ccccc2)sc1-c1csc(Nc2cccc(Cl)c2)n1 | 37 | 5% | -26 | 3 | -0.5
CCOC(=O)C1=C(C)N(CCCC(=O)O)C(=O)NC1C(CC)CC (configuration not stated) | x | -4% | x | 5 | -0.7
Cc1ccc2c(c1)c(=O)c1c3n2CCN(C(=O)CCl)C3CC1 (configuration not stated) | 8 | x | -2 | 89 | 15
CC12CCC(C(=O)NCc3ccc(F)cc3)(OC1=O)C2(C)C (configuration not stated) | x | -1% | 5 | 3 | -0.3
CCOC(=O)c1ccc(NC(=O)c2cc3ccccc3o2)cc1 | -35 | 4.7µM* | 16 | 96 | -7.2 | Arbovirus inh repeat=11
O=C(CN1N=C(c2ccccc2)CCC1=O)NCc1cccs1 | x | 8% | 0 | -3 | 0.4
CC1(C)Cc2c(sc3nc(=S)[nH]c(N)c23)CO1 | x | x | x | 0 | 1.5
CCCCC(=O)NC(=S)Nc1cc(C(=O)O)ccc1Cl | -7 | 4% | 9 | 1 | -3.3
Cc1ccc(-c2nnc(CN3CCN(C)CC3)o2)cc1 | x | x | x | 1 | 2.5
N#C/C(=N\Nc1ccccc1)C(=N)N1CCCCC1 | -18 | -6% | 2 | -3 | 2.1
CCCCCCCC(=O)NNC(=O)c1ccc(F)cc1 | -36 | 1% | 1 | 37 | 1.1

High-throughput results as filed in PubChem.
